Screening results (PubChem BioAssay)
Biofilm kill mix = mixtures killing C. albicans biofilm. C. albicans biofilm persisters + clotrimazole, fluorescence viability; primary screen in compound mixtures of four per well. inhibition, % at 7.6 µM. actives 0.02% (n = 120,000). AID 1242;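 active = inhibition above 30.3% in the primary screen of four-compound pools, then above 30% when the compound was retested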;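 note: compounds exposed to preformed 24 h biofilms for 48 h; the number belongs to the whole pool; some results filed as inactive read as strong as hits; inactives centre near 12; 0% = biofilm with clotrimazole alone and 100% = kill control; retested singly at about 60 µM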
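System: C. albicans CAF4-2 wild-type biofilms; Medium: RPMI/MOPS medium, pH 7.0; Reagent: Clotrimazole, 50 µg/mL; Times: biofilm formation 24 h, compound exposure 48 h, 37 °C; Detection: 2-h Alamar Blue fluorescence, 535/590 nm excitation/emission; Evaluation: percent inhibition of biofilm viability.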
An asterisk follows results filed as active; & = joins results of further samples. Only part of the results is shown; count on the stated rates, not on these rows.

Start of the listing, in advance (two entries):
Compound | Biofilm kill mix
Cc1nc(CN2CCC(c3ccccc3)CC2)cc(=O)[nH]1 | -1
Cc1ccc(/C(O)=C/C(=O)C(=O)NNC(=O)C(O)(c2ccccc2)c2ccccc2)cc1 | 6

All compounds of this part, repeating the preview:
Compound | Biofilm kill mix
Cc1nc(CN2CCC(c3ccccc3)CC2)cc(=O)[nH]1 | -1
Cc1ccc(/C(O)=C/C(=O)C(=O)NNC(=O)C(O)(c2ccccc2)c2ccccc2)cc1 | 6
CNC(=S)N1CCC(NC(=O)C(Cc2ccccc2)NC(C)=O)CC1 (stereo unspecified) | 18
CN(C)S(=O)(=O)c1cccc(C(=O)NCCCn2ccnc2)c1 | 2
O=C(Oc1cccc(C(=S)N2CCOCC2)c1)c1cccc([N+](=O)[O-])c1 | 24
COc1ccc(-n2c(COc3cccc4cccnc34)nnc2SCC(=O)O)cc1 | 13
CC(=O)c1ccc2noc(-c3cccc(C)c3)c2c1 | 4
CCOc1cc(/C=N/O)cc(Br)c1OCC | 20
CCOc1ccccc1OCC(=O)Nc1ccc(S(=O)(=O)Nc2ncccn2)cc1 | 7
Cc1cc(C)n2ncc(/C(N)=N/OC(=O)Nc3ccc(Cl)cc3)c2n1 | 25
Cc1cccc(NC(=O)NCc2ccc3c(c2)OCO3)c1C | 13
CC(C)(C)OC(=O)CNC(=O)c1[nH]cnc1C(=O)Nc1ccc(CNC(=O)OC(C)(C)C)cc1 | 16
Cc1ccc(-c2nc(N)n(C(=O)c3ccco3)n2)cc1 | 8
CC(O)C(NS(=O)(=O)c1ccc(Cl)cc1)C(=O)OCC(=O)N1CCN(c2ccccc2)CC1 (stereo unspecified) | 11
CCN(CC)S(=O)(=O)c1cc(NC(=O)Cc2n[nH]c(=O)c3ccccc23)ccc1C | 6
Cc1cc(C)c2c(N)c(C(=O)N/N=C/c3cccs3)sc2n1 | 21
O=c1c2ccccc2ncn1-c1ccc(Cl)cc1 | 20&23
CC(C)(C)NC(=O)/C(=C\c1ccccc1F)NC(=O)c1ccc([N+](=O)[O-])cc1 | 17
O=C(NC(=S)Nc1ccc2c(c1)OCCO2)c1ccc(F)cc1Cl | -3
Cc1cc(-c2cn3ccccc3n2)c(C)n1-c1ccccc1 | 6
O=C(N/N=C/c1cccnc1)C12CC3CC(CC(C3)C1)C2 | 6
Cc1ccc(NC(=O)CSc2nc(CSc3ccc(C)cc3)cc(=O)[nH]2)cc1 | 11
Cc1ccc(NC(=S)NC(=O)c2ccccc2)cc1NC(=S)NC(=O)c1ccccc1 | 22
COc1ccc(OCC(=O)Nc2nnc(-c3ccco3)s2)cc1 | 10
COc1ccc(C(=O)NNC(=O)CSc2ccccc2)cc1 | 0
CC(C)CN(CC(C)C)C(=S)NC1CCCCC1 | 18
O=C(O)c1cccc2c(/C=N/Nc3ccccn3)c[nH]c12 | 27
CN(CCC1CCOCC1)C(=O)CC1C(=O)NCCN1C/C=C/c1ccccc1 (stereo unspecified) | 8
Cc1ccc2c(c1)S/C(=C/c1ccc[n+](C)c1)N2CCO | 9
CCOc1cccc(CN2CCCC(CCC(=O)NCc3ccccc3F)C2)c1O (stereo unspecified) | 18
COc1ccc(NS(=O)(=O)c2cc(NC(=O)c3ccc(C)o3)ccc2N2CCCCC2)cc1 | -4
Cc1ccc(Oc2nc3c(C)cccn3c(=O)c2/C=C(\C#N)C(N)=O)cc1 | 19
O=C(Nc1nc2c(s1)CCCC2)c1cc(-c2ccc3c(c2)OCO3)nc2ccccc12 | 24
CCN(CC)CCC(=O)NN | 14
O=C(Nc1cccc(-c2cn3c(n2)SCC3)c1)c1ccc2c(c1)OCO2 | 18
CCCCCNCc1ccc(OCc2ccc(Cl)nc2)c(OC)c1 | 9
Clc1cc2c(cc1/C=N/Nc1nc(N3CCOCC3)nc(N3CCOCC3)n1)OCO2 | 1
COc1ccc(O)c(C=NCC(C)N=Cc2cc(OC)ccc2O)c1 (stereo unspecified) | 11
Cn1cnc(Sc2ncnc3nc[nH]c23)c1[N+](=O)[O-] | 26
COc1ccccc1/C=C/C=N/NC(=O)c1ccccn1 | 6
CCOC(=O)CNC(=O)c1cc(-c2ccccn2)nc2c(C)c(Cl)ccc12 | -2
Cc1nn(-c2ccccc2)nc1C(N)=O | 8
CN(C)/C=C(\C=O)c1ccc(Cl)cc1Cl | 16
NC(=S)N/N=C1\CCOc2ccc(F)cc21 | -8
O=c1ccc2ccc(Oc3ccc([N+](=O)[O-])cc3Cl)cc2o1 | 8
O=C(COC(=O)Cn1cnc2ccccc21)Nc1cccc2c1C(=O)c1ccccc1C2=O | 17
O=C(COCC(=O)NCc1ccccc1)NCc1ccccc1 | -4
CCOc1ncccc1C(=O)Nc1ccc(S(=O)(=O)Nc2nccs2)cc1 | 14
Cc1onc(-c2ccccc2Cl)c1C(=O)NC(=S)Nc1ccc(C(C)(C)C)cc1 | 14
O=C(Cc1ccccc1F)Nc1ccccc1-c1ccccc1 | 2
COc1ccc(CN(C)CC(=O)Nc2ccc(SC(F)F)cc2)cc1OC | 9
CCOc1ccccc1-n1c(C)nc2cc(C(=O)O)ccc21 | 14
CC1CCN(c2c(NCC3CCC(C(=O)NCc4ccccc4Cl)CC3)c(=O)c2=O)CC1 (stereo unspecified) | 19
COc1cc(NC(=O)c2ccc(Cl)cc2Cl)ccc1NC(=O)c1cccs1 | 18
N#CC(c1ccncc1)(c1ncc(C(F)(F)F)cc1Cl)N1CCOCC1 (stereo unspecified) | 21
CCOc1ccc(Cn2c(=O)sc3ccccc32)cc1OC | -23

Following part
Compound | Biofilm kill mix
Cc1ccccc1NC(=O)Cc1nnc(N)s1 | 16
Cc1cc(C)cc(NC(=O)CSc2nc3c(oc4ccccc43)c(=O)n2-c2ccccc2)c1 | 5
COc1cc(OC)cc(C(=O)NNC(=S)Nc2ccc(S(N)(=O)=O)cc2)c1 | -1
Cn1cc(Br)c(C(=O)n2cc(Br)cn2)n1 | 2
COc1ccc(OC)c(NC(=O)CNC(=O)c2ccc([N+](=O)[O-])cc2)c1 | 21
Cc1nonc1NC(=O)CSc1nc2ccccc2cc1C#N | 3
CCCCc1cc(=O)oc2cc(OS(C)(=O)=O)ccc12 | 16
CCN(CC)C(=O)CSc1nnc(COc2cccc(C)c2)n1C | 10
CC(=O)N(Cc1nc2sc(C)c(C)c2c(=O)[nH]1)C1CCCC1 | 20
O=C(N/N=C/c1ccco1)c1cccc(N2Cc3ccccc3C2)c1 | 14
CC(=O)c1c(O)c2ccccc2n(C(C)C)c1=O | 28
NC(=O)C1CCN(C2CC(=O)NC2=O)CC1 (stereo unspecified) | 6
O=C1OCC2=C1C(c1ccccc1)CC(=O)N2c1ccccc1 (stereo unspecified) | 11
CCOC(=O)C(=O)N/N=C/c1ccc(F)cc1 | -5
Cc1nn(-c2ccccc2)c(NC(=O)c2cccs2)c(-c2ccccc2)c1=O | 13
COc1ccccc1N1CCN(CC(=O)Nc2sccc2C#N)CC1 | 14
S=c1[nH]nc(-c2ccccn2)n1/N=C/c1cccc(Cl)c1 | 0
Oc1ccccc1C=NCCCCCCN=Cc1ccccc1O | 32
C=CCc1ccccc1OCCOc1ccc([N+](=O)[O-])cc1/C=N/NC(N)=O | 2
COc1ccccc1/C=C(/C(=O)OCC(=O)Nc1cc(C)ccc1C)c1ccccc1 | 19
O=C1CCC/C(=N\NC(=O)c2ccc(CSc3cccc4cccnc34)cc2)C1 | 18
Cc1c(Br)c(C(F)(F)F)nn1CC(=O)NCCCn1ccnc1 | 17
Cc1ccc(C(C[N+](=O)[O-])c2c(N)n(C)c(=O)n(C)c2=O)cc1 (stereo unspecified) | 22
CN(CC(=O)NCc1ccco1)S(=O)(=O)c1ccc2c(c1)c(=O)n(C)c(=O)n2C | 8
NCc1ccccc1COc1ccccc1 | 7
O=C(CN1CCN(Cc2ccccc2Cl)CC1)N/N=C/C=C\c1ccccc1[N+](=O)[O-] | 17
CSc1ccc(C(=O)C2CCCN(C(=O)CCCn3cncn3)C2)cc1 (stereo unspecified) | 0
O=C(c1ccc(Br)o1)N1CCc2ccccc21 | 20
CC(C)N(C(C)C)S(=O)(=O)c1ccc(Cl)nc1 | 2
CCCOc1ccc(CCC(=O)N/N=C/c2ccncc2)cc1 | 23
O=C(O)Cn1cc(/C=N/NC(=O)c2cc3cc(Br)ccc3o2)c2ccccc21 | 19
O=C(Nc1ccc(NC(=S)NC(=O)c2cccs2)cc1)c1ccccc1 | 6
O=C1NCC(O)=C1C=Nc1ccccc1O | 19
CC(C(=O)Nc1ccccc1)N(c1cccc(Cl)c1)S(C)(=O)=O (stereo unspecified) | 2
O=C(Cc1csc(-c2ccccc2)n1)NCc1cccs1 | 19
CSc1ccc(Cl)c(C(=O)Nc2ccc(Cl)cn2)c1 | 14
CCCCOC(=O)C[N+](C)(C)CCOC1CC2CCC1(C)C2(C)C (stereo unspecified) | 13
CCN(CC)S(=O)(=O)c1cccc(C(=O)N/N=C/c2cccc(O)c2O)c1 | 14
COc1ccccc1N(CC(=O)NCC1CCCO1)C(=O)CNS(=O)(=O)c1ccc(Cl)cc1 (stereo unspecified) | 24
CN(C)c1ccc(/C=C/c2ccc3ccccc3[n+]2C)cc1 | 34*
O=C(N/N=C/c1cccs1)c1ccc(NC(=O)c2ccccc2Cl)cc1 | 21
O=C(CCc1nnc(CCCCc2ccccc2)o1)NC(c1cccnc1)C(F)(F)F (stereo unspecified) | 11
COc1cc(OC)c(OC)cc1C#N | 25
Cc1ccccc1CC1(CO)CCCN(C(=O)c2ccc3ncccc3c2)C1 (stereo unspecified) | 0
CNC(=S)NC1(C)CCS(=O)(=O)C1 (stereo unspecified) | 20
CCOC(=O)C(=O)Nc1ccc(OC)c(Cl)c1 | 10
COC(=O)C(O)(NC(=O)c1ccncc1)C(F)(F)F (stereo unspecified) | 15
COc1ccc(-c2cc(C(=O)Nc3cc(C)nn3-c3ccccc3)no2)cc1OC | 16

Exported as labelled records: part of the list above
> CNC(=S)NC1(C)CCS(=O)(=O)C1 (stereo unspecified)
  Biofilm kill mix: 20

> COc1ccc(-c2cc(C(=O)Nc3cc(C)nn3-c3ccccc3)no2)cc1OC
  Biofilm kill mix: 16

> COC(=O)C(O)(NC(=O)c1ccncc1)C(F)(F)F (stereo unspecified)
  Biofilm kill mix: 15

> COc1cc(OC)c(OC)cc1C#N
  Biofilm kill mix: 25

Following part
Compound | Biofilm kill mix
Cc1ccccc1OCCn1cc(C(=O)C(=O)N2CCOCC2)c2ccccc21 | 15
NC(=O)CN1C(=O)C(O)(CC(=O)/C=C\C=C\c2ccccc2)c2ccccc21 (stereo unspecified) | 14
CCOC(=O)c1cnc(-c2ccc(C(F)(F)F)cn2)[nH]c1=O | 23
COc1cc2c(cc1OC)-c1cc(Nc3ccccc3)nc(=O)n1CC2 | 24
O=C(c1ccc(Cl)cc1[N+](=O)[O-])N1CCOCC1 | -2
O=C(Nc1ccc(S(=O)(=O)Nc2nccs2)cc1)C1CC(=O)N(c2ccccc2)C1 (stereo unspecified) | 4
Fc1ccc(OCc2nc(-c3ccncc3)n[nH]2)cc1 | 7
Cc1cc(Cl)n2ncc(-c3ccccc3)c2n1 | 18
Cc1cc(N2CCN(C(=O)c3ccco3)CC2)n2nc(C)nc2n1 | 4
Cc1cc(NC(=O)CSc2nccn2C)no1 | 10
O=C(CSc1nc2c(cnn2-c2ccccc2)c(=O)[nH]1)c1ccc(Cl)cc1 | 6
C=CCNC(=O)C1COc2ccccc2O1 (stereo unspecified) | 14
CCn1c(SCC(=O)O)nnc1-c1ccccc1OC | -4
CC1(OC(=O)CCc2ccccc2)C(=O)C=C2C=C(c3ccc(C#N)cc3)N(c3ccccc3)C=C2C1=O (stereo unspecified) | 20
CCn1c2ccccc2c2cc(NC(=O)c3ccccc3-c3ccccc3C(=O)O)ccc21 | 6
CCOC(=O)c1sc(-c2ccccc2)nc1C | -12
O=C(Nc1ccc(SC(F)F)cc1)c1ccccc1F | 13
Cc1cc(C)n2nc(N)c(N=Nc3cccc(Cl)c3)c2n1 | 6
Cc1ccc(OCCOC(=O)Nc2ccccc2)cc1 | 11
Cc1cc(C)c2[nH]c(=O)c(CN(CC3CCCO3)C(=S)Nc3ccccc3)cc2c1 (stereo unspecified) | 13
CC(C)COc1ccc(C(=O)Nc2ccc(SC(F)F)cc2)cc1 | 9
C/C(=N/NC(=O)c1cccs1)c1ccc(N2CCOCC2)cc1 | 17
Cc1cccc(C)c1NC(=O)C(c1ccccc1)N1CC(=O)Nc2ccccc21 (stereo unspecified) | 12
COc1ccc(C(=O)NNC(=O)c2ccc(C)cc2)cc1S(=O)(=O)N1CCCC1 | 1
COC(=O)c1[nH]c2ccc(C)cc2c1NC(=O)c1ccccc1[N+](=O)[O-] | 5
O=C(O)C(=O)/C(=C\c1ccc(Cl)cc1)c1ccc2ccccc2n1 | 7
Cc1c(CCOC(=O)c2cc([N+](=O)[O-])cc([N+](=O)[O-])c2)sc[n+]1CCCCS(=O)(=O)[O-] | -1
Cc1nn(CCC(N)=S)c2nc(-c3cccs3)cc(C(F)(F)F)c12 | 21
COc1cc(/C=C(\C#N)c2ccccn2)ccc1OCC(=O)Nc1cccc(C(F)(F)F)c1 | 3
CCc1cccc(C)c1NC(=O)CN(C)Cc1ccc(Br)cc1 | 4
Cc1cc(=O)oc2cc(N3C(=O)CC(Cc4ccccc4)C3=O)ccc12 (stereo unspecified) | 13
O=C(CCN1C(=O)C2C3C=CC(C3)C2C1=O)Nc1ccccc1 (stereo unspecified) | 12
CCN(C(=O)COC(=O)c1ccc(Cl)cc1N)C1CCCCC1 | 12
